# Compound activity (PubChem)
# miR-21 FLuc = miR-21 reporter, rising signal; HeLa miR-21 FLuc reporter, luciferase, 48 h; Potency, µM (top dose mostly 38.3 µM), for inactives: at the top dose reporter change, positive = more light; 340,000 tested, under 10 active; AID 2288; active = well fitted rising curve with a large enough effect; inconclusive = small, poorly fitted or top-dose-only effect; inactive = no such curve, though single readings can be large or run the other way;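 note: % of control where 0% means no effect; miR-21 action dims this reporter so a rising signal means less miR-21 action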
#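 Compounds were titrated across several concentrations (up to approximately 40 uM) and incubated 48 hours with HeLa miR-21-FLuc reporter cells (miR-21 target sequence downstream of FLuc, endogenous miR-21). Readout was firefly luciferase luminescence after lytic detection reagent.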
# Rango release inh = prevents RanGTP from dissociating the Rango-importin beta complex. Biochemical FRET Rango-importin beta, RanGTP-induced dissociation. 340,000 tested, 0.071% active. O95149+P62826. Potency, µM (series often up to 46.1 µM), for inactives: at the highest dose activity change, negative = inhibition; active means falling FRET ratio curve, often poorly fitted, with flat reads before Ran was added; inconclusive means other falling curves, or compound fluorescence or quenching; inactive means flat or rising ratio curve;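 note: potency is the fitted concentration of half-maximal effect; % of control where 0% means no effect; nearly all actives have a fitted effect of over 45% in size; -100% = wells without RanGTP and RCC1; the record marks most hits as doubtful in a second field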
#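 Rango FRET biosensor (snurportin-1 IBB flanked by N-terminal EYFP and C-terminal CFP10) at 0.1 uM, with 0.25 uM importin beta in PBS, 1mM DTT, 0.02% Tween-20, 0.1% BSA. 0.6 uM Ran, 2mM GTP and 0.2 uM RCC1 were then added for 45 min at room temperature. Inhibition read as loss of FRET rise.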
# Rango complex inh = prevents formation of the Rango-importin beta complex; Rango CFP/YFP FRET sensor + importin beta, 45 min; AID 540263; Potency, µM (top dose mostly 92.2 µM), without a hit: top-dose inhibition of complex formation; 340,000 tested, 0.031% active; Q14974; active = rising FRET ratio curve, often small or poorly fitted; inconclusive = mostly compound fluorescence or quenching in the first reads; inactive = flat curves in all reads;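 note: potency is the fitted concentration of half-maximal effect; 0% = DMSO wells and 100% = buffer wells lacking importin beta; nearly all actives have a fitted effect of over 15% in size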
# Target sequence (Q14974 whole entry, looked up): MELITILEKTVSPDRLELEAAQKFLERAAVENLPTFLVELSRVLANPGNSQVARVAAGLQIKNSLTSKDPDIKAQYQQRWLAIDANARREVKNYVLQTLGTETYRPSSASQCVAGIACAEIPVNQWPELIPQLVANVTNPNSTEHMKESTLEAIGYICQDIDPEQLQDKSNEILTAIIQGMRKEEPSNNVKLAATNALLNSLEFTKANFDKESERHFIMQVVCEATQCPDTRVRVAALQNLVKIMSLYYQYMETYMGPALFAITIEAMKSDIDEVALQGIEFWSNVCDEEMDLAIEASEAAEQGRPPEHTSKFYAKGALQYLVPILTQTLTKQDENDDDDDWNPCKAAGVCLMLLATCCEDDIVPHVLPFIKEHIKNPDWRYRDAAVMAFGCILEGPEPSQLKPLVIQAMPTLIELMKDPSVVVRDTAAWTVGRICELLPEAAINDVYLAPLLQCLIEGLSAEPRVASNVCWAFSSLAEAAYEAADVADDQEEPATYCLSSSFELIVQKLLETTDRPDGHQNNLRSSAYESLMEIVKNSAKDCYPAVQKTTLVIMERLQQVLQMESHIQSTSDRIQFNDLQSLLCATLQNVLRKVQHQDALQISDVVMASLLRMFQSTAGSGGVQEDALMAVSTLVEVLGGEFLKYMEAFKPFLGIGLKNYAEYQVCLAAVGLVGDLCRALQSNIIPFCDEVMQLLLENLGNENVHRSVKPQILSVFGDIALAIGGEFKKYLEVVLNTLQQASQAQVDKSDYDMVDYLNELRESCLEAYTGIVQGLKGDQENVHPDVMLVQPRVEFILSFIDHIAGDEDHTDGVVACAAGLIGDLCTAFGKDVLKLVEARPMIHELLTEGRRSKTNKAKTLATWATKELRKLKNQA
#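 FRET biosensor Rango (snurportin 1 IBB between N-terminal EYFP and C-terminal Cerulean), 50 nM in PBS/1 mM DTT/0.02% Tween-20/0.1% BSA, preincubated 5 min RT with compound; 0.125 microM importin beta added, 45 min RT, CFP/YFP FRET ratio read.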
# GLA inh pH 4.5 = alpha-galactosidase A (human) inhibition, pH 4.5; P06280; purified enzyme, 4-MU-alpha-Gal fluorescence, pH 4.5; activity change, negative = inhibition, % at 105 µM; 230,000 tested, under 10 active; AID 1467; inconclusive = small, poorly fitted or top-dose-only inhibition, or a rising curve; inactive = flat fitted curve, though single readings scatter; no compound was filed as active;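 note: 0% = full activity with enzyme and -100% = basal without enzyme; dose as in the result columns while the protocol names 77 µM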
# Starred values were filed as active, the others as inactive; ? = inconclusive; . = not tested or not shown; & = joins results of further samples. These rows are one share of the data (hit frequency here may not be typical).
miR-21 FLuc	Rango release inh	Rango complex inh	GLA inh pH 4.5	SMILES
-3%	-8%	1.3%	3	CCN(CC)CC(O)c1cccn1-c1ccc(CNC(=O)NC(C)C)cc1 (configuration not stated)
.	-19%	?	.	Cc1ccc(CNC(=O)c2ccc(N3CCC4(CC3)CC(c3cccc(Br)c3)=NO4)c(N)c2)cc1
-9%	-23%	1.6%	4	CC(=O)c1cnc(Nc2nc(C)c3cc(C)c(C)cc3n2)nc1C
.	16%	-3.0%	.	Cc1ccc(C(=O)OCC(=O)Nc2cccc(S(=O)(=O)N3CCOCC3)c2)o1
3%	-21%	4.7%	-6	O=C(NC1CCCCC1)N1CCN(C(c2ccccc2)c2ccccc2)CC1
.	0%	5.6%	.	O=C(COc1ccccc1)NCC(=O)Nc1ccncc1
.	10%	-2.1%	.	Cc1ccc(C(=O)NCC(=O)N(C)CC(=O)Nc2c(Cl)cccc2Cl)s1
.	-6%	4.4%	.	COc1ccc(S(=O)(=O)N2CCN(CC(=O)NCC3(N4CCOCC4)CCCCC3)CC2)cc1
-10%	11%	0.7%	-3	O=c1[nH]oc2cc(Cl)ccc12
26%	1%	2.7%	.	COc1cccc(-c2csc(NC(=O)Nc3ccccc3)n2)c1
-28%	.	.	-2	Nc1nonc1C(=O)N/N=C/c1ccc(-c2cccc(C(=O)O)c2)o1
0%	10%	5.6%	-14	Cc1ccc(C)c(S(=O)(=O)NCCOc2nc(NC(C)C)nc(NC(C)C)n2)c1
-7%	.	.	3	COc1ccc2nc(NC(=O)/C=C/c3ccc4c(c3)OCO4)sc2c1
.	-8%	2.2%	.	Cc1ccc(SCC(=O)N(C)C2CCS(=O)(=O)C2)c(C)c1 (configuration not stated)
-2%	9%	1.0%	.	COc1ccc(-c2nnc3n2CCCCC3)cc1OC
-3%	-13%	?	-5	COc1cccc2cc(C(=O)N3CCN(c4ccccn4)CC3)c(=O)oc12
-15%	.	.	16	Cc1nn2c(N3CCN(C(=O)c4ccco4)CC3)cc(C(C)(C)C)nc2c1-c1ccc(Cl)cc1
6%	-16%	-0.1%	.	COc1ccc(N2CCN(S(=O)(=O)c3ccc(OC)c(C(=O)N4CCOCC4)c3)CC2)cc1
11%	-14%	-2.9%	-15	Cc1ccc(S(=O)(=O)NCc2nc3ccccc3c(=O)n2N)cc1
-10%	-5%	3.6%	.	Cc1cccc(C(=O)N2CCCC(N3CCN(c4cccc(Cl)c4)CC3)C2)n1 (configuration not stated)
0%	47%	-2.6%	.	COc1ccc(CNC(=O)CCc2c[nH]c3ccccc23)cc1
0%	2%	-4.3%	-1	O=C(O)CCCCCNC(=O)c1ccc(Br)cc1
-5%	-6%	1.6%	4	O=C(O)c1ccc(CNCc2c(Cl)cccc2Cl)cc1
16%	3%	4.6%	6	Cc1cc2c(cc1C)C(c1cccc([N+](=O)[O-])c1)CC(=O)N2 (configuration not stated)
-1%&3%	3%	0.7%	.	Cc1nc2scc(C)n2c(=O)c1S(=O)(=O)Nc1ccc(N2CCOCC2)c(Cl)c1
3%	-3%	-2.1%	9	CC1=NOC(=O)/C1=C/c1ccc2c(c1)OCO2
-3%	-6%	-4.1%	1	COc1ccc(CCNC(=O)COc2ncnc3cc([N+](=O)[O-])ccc23)cc1
-46%	-9%	0.0%	7	Nc1ccc(C(=O)N/N=C/c2ccccc2)cc1
.	6%	0.6%	.	Cc1cc(NC(=O)COc2coc(CN3CCN(c4ccccc4F)CC3)cc2=O)no1
-8%	-8%	-1.0%	9	COc1ccc(NC(=O)CCCSc2ccccc2)cc1

# 2 of these compounds in another layout.
canonical_smiles | miR-21 FLuc | Rango release inh | Rango complex inh | GLA inh pH 4.5
Cc1cc2c(cc1C)C(c1cccc([N+](=O)[O-])c1)CC(=O)N2 (configuration not stated) | 16% | 3% | 4.6% | 6
Nc1ccc(C(=O)N/N=C/c2ccccc2)cc1 | -46% | -9% | 0.0% | 7

# Compounds listed so far with a COOH group, in the order listed:
miR-21 FLuc	Rango release inh	Rango complex inh	GLA inh pH 4.5	SMILES
-28%	.	.	-2	Nc1nonc1C(=O)N/N=C/c1ccc(-c2cccc(C(=O)O)c2)o1
0%	2%	-4.3%	-1	O=C(O)CCCCCNC(=O)c1ccc(Br)cc1
-5%	-6%	1.6%	4	O=C(O)c1ccc(CNCc2c(Cl)cccc2Cl)cc1

# More structures
miR-21 FLuc	Rango release inh	Rango complex inh	GLA inh pH 4.5	SMILES
3%	3%	1.7%	1	Cc1ccccc1OCC(=O)Nc1ccc(Cc2ccncc2)cc1
-24%	-6%	-0.1%	-11	Cc1cccc(-c2cnn(-c3cccc([N+](=O)[O-])c3)c2N)c1
-2%	8%	-1.8%	-8	N#Cc1ccc(CSc2nnc(COc3ccccc3)n2-c2ccccc2)cc1
.	9%	0.5%	.	O=C(CCC1CCCCC1)NCCS(=O)(=O)N1CCN(c2ccccc2F)CC1
5%	-7%	-2.5%	6	CC1(C)Cc2c(sc3nc(SCC(=O)O)[nH]c(=O)c23)CO1
-12%	?	?	-6	Cc1ccc(Nc2c(-c3ccccc3)nc3cnccn23)cc1
-3%	3%	-5.5%	-6	Cn1c(=O)c2c(nc(NCCCO)n2Cc2cccc(Br)c2)n(C)c1=O
.	22%	-0.4%	.	O=C(COC(=O)CN1CCSC1=O)Nc1ccc(F)cc1Cl
.	-8%	-1.4%	.	Cc1cccc(N(Cc2ccccc2)C(=O)CN2C(=O)NC3(CCCCC3C)C2=O)c1 (configuration not stated)
-3%	1%	-4.3%	-16	CCC(=O)/C=C1/Sc2ccccc2N1CC
-67%	-7%	?	2	COc1ccc2cnn(-c3ccc(C)cc3)c(=O)c2c1OC
11%	-12%	4.0%	.	Cc1cc(S(=O)(=O)N2CCCC(N(C)CCc3ccccn3)C2)c(C)cc1Cl (configuration not stated)
3%	2%	-0.8%	.	Cc1ccccc1CN1CCCOCCS1(=O)=O
0%	-19%	?	.	C/C(=N/NC(=O)c1cc2ccccc2cc1O)c1ccco1
-5%	4%	0.9%	9	COc1ccc(-n2c(SC)nc(O)c(Cc3ccccc3)c2=O)cc1
7%	-8%	3.5%	0	CN(CC(=O)Nc1ccc(F)cc1)C(=O)COc1ccc(C(=O)c2ccccc2)cc1
15%	4%	-5.3%	.	CCc1cccc(NC(=O)CCc2c(C)nn(-c3ccc(N4CCCCC4)nn3)c2C)c1
1%	3%	-2.2%	-1	CC(C)OC(=O)CSc1nnc(CNc2ccc(Cl)cc2)n1C
2%	0%	-2.4%	.	Cc1ccc2cc(CCNC(=O)c3ccc(S(=O)(=O)N4CCOCC4)cc3)c(=O)[nH]c2c1C
-3%	-10%	-6.2%	7	CCOc1cc(NC(=O)c2ccccc2[N+](=O)[O-])c(OCC)cc1NC(=O)CC(C)C
-6%	5%	-0.6%	2	Cn1nc(-c2ccc(C(=O)O)cc2)c2ccccc2c1=O
0%	-2%	0.4%	-2	CC(=O)c1c(COC(=O)c2ccncc2)nc2ccccc2[n+]1[O-]
-6%	-11%	-0.2%	-2	CC(CCc1ccccc1)NC(=O)c1ccccc1 (configuration not stated)
-1%	-14%	4.9%	.	COc1cc(C2NC(=O)NC(C)=C2C(=O)OC2CCCC(C)C2)cc(Br)c1O (configuration not stated)
-5%	6%	-0.4%	4	Brc1ccc(COn2ccnc2)cc1
-3%	0%	1.3%	-5	C/C(=N\OC(=O)C1CC1)C1CC1c1ccc(F)cc1 (configuration not stated)
9%	18%	-1.9%	-6	CC(C)(C)c1csc(NC(=O)c2ccncc2)n1
.	-13%	0.6%	.	Cc1ccc(Cn2c(CCNc3nc(-c4ccc(Cl)c([N+](=O)[O-])c4)cs3)nc3cc(Cl)c(Cl)cc32)cc1
0%	-15%	-0.1%	-2	Cn1c(=O)c([N+](=O)[O-])c(-n2cnc3ccccc32)c2ccccc21
-9%	-15%	-3.2%	.	COc1ccc(CCn2c(=N)c(C(=O)NCCN3CCOCC3)cc3c(=O)n4ccccc4nc32)cc1OC
-33%	1%	-0.7%	-3	O=C(CCOc1ccccc1F)N1CCN(c2ccccc2O)CC1
-9%	11%	-1.1%	.	O=C(CNC(=O)N1CC(=O)Nc2ccccc21)Nc1ccccc1F
-6%	-4%	-0.2%	6	Cc1cc(=O)[nH]c(N/N=C/c2ccco2)n1
-7%	12%	-1.3%	.	Cc1ccc(CCC(=O)Nc2cc(Cl)ccc2Cl)o1
0%	-10%	-5.6%	.	O=C(N/N=C/c1ccccc1Cl)c1ccncc1
15%	-1%	-1.6%	-5	O=C(Nc1cccnc1)c1ccc(Cl)c(S(=O)(=O)N2CCCCCC2)c1
-6%	-10%	-0.6%	.	Cc1nn(C(C)C(=O)NCCCN2CCCCCC2)c(=O)c2cc3sccc3n12 (configuration not stated)
-1%	1%	0.8%	3	Cc1cc(C)nc(SCCn2c(N(C)Cc3ccccc3)nc3c2c(=O)n(C)c(=O)n3C)n1
24%	-24%	3.4%	10	CC1(C)Cc2c(c(N3CCOCC3)nc3snc(N)c23)CO1
.	6%	-2.9%	.	COc1ccc(CCC2(C)NC(=O)N(C(C)C(=O)Nc3ccccc3F)C2=O)cc1 (configuration not stated)
1%	1%	2.4%	1	O=c1[nH]c(NCCCO)nc2c1C1(CCCC1)Cc1ccccc1-2
.	1%	3.3%	.	CN(C)C(=O)COC(=O)c1cccc(S(=O)(=O)Nc2ccc(OCc3ccccc3)cc2)c1
0%	-1%	-0.6%	.	Cc1cccc(N2C(=O)N3[C@H](c4ccc(F)cc4)[C@@H]4C(=O)N(C5CCCCC5)C(=O)[C@@H]4[C@]3(Cc3ccc(Cl)cc3)C2=O)c1
-6%	-2%	-0.6%	0	O=C(C1CCCCC1)N1CCN(S(=O)(=O)c2ccc(Cl)cc2)CC1
0%	-7%	-2.9%	.	O=C(NC1CCCC1)C(c1ccncc1)N(C(=O)c1csnn1)c1ccccc1F (configuration not stated)
16%	-7%	1.5%	.	O=C(O)c1ccccc1NC(=O)c1cc(-c2ccccc2)nc2ccccc12
.	6%	-1.0%	.	O=C(Nc1ncn[nH]1)c1ccc(Cl)c(Cl)c1
-20%	26%	-2.7%	11	Fc1ccc(NC(=S)NCCc2ccccn2)cc1
-7%	8%	2.1%	.	O=C(NCCc1ccccc1Cl)C1CCC(=O)N(CCCc2ccccc2)C1 (configuration not stated)
1%	-5%	0.8%	.	Cc1nn(C)cc1CNC(=O)C1CCC(=O)N(CC2CCCCC2)C1 (configuration not stated)

# Filtered by structure: those above containing a thiophene ring, fused or not
miR-21 FLuc	Rango release inh	Rango complex inh	GLA inh pH 4.5	SMILES
.	10%	-2.1%	.	Cc1ccc(C(=O)NCC(=O)N(C)CC(=O)Nc2c(Cl)cccc2Cl)s1
5%	-7%	-2.5%	6	CC1(C)Cc2c(sc3nc(SCC(=O)O)[nH]c(=O)c23)CO1
-6%	-10%	-0.6%	.	Cc1nn(C(C)C(=O)NCCCN2CCCCCC2)c(=O)c2cc3sccc3n12 (configuration not stated)

# (continued)
miR-21 FLuc	Rango release inh	Rango complex inh	GLA inh pH 4.5	SMILES
-32%	-3%	-3.2%	.	C/C(CC(=O)Nc1ccc2c(c1)OCCO2)=N\NC(=O)c1ccccc1F
-6%	-9%	?	.	Cc1ccc(-c2csc(N(CCO)CCCn3c(C(F)(F)F)nc4cc(C(F)(F)F)ccc43)n2)cc1
-6%	1%	1.0%	7	Cc1sc2ncnc(OCC(=O)NC(C)C)c2c1C
-6%	-7%	-0.2%	.	COc1ccc(CC(=O)N/N=C(\C)CC(=O)Nc2cccc(F)c2)cc1
.	-17%	-0.7%	.	CCCCCN(C(=O)CCC(=O)OCc1ccc(C(C)C)cc1)c1c(N)n(CCCC)c(=O)[nH]c1=O
-16%	-4%	-0.7%	-2	O=C(NCC1CCCN(C(=O)NCc2ccccc2)C1)c1ccc2c(c1)OCO2 (configuration not stated)
0%	3%	?	.	Cc1c(Cl)cccc1NC(=O)CNC(=O)c1ccco1
-2%	13%	-2.4%	-12	Cc1[nH]c2ccccc2c1C(=O)CSc1nccc(=O)[nH]1
0%	0%	6.3%	-20	COc1ccc(C(=O)Oc2cc3c4c(c2)C(C)=CC(C)(C)N4C(=O)C3=O)cc1OC
